HNF4A DNA FP: change in binding of human HNF4A to DNA, primary screen, biochemical, fluorescence polarization, FITC-DNA | 1 h | activity change, % at 10 µM | Hepatocyte nuclear factor 4-alpha (Homo sapiens), P41235 | 0.3% of 360,000 active | AID 1224865, 2016; in the data active means activity change above about 30%, passing the limit was not always enough;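 further: controls were the assay level and a saturating level of protein; the project sought stronger binding though the title names inhibitors; some compounds called inactive have numbers as strong as hits; positive values seem to mean higher polarization but the record does not say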
Target sequence (P41235 whole entry, looked up): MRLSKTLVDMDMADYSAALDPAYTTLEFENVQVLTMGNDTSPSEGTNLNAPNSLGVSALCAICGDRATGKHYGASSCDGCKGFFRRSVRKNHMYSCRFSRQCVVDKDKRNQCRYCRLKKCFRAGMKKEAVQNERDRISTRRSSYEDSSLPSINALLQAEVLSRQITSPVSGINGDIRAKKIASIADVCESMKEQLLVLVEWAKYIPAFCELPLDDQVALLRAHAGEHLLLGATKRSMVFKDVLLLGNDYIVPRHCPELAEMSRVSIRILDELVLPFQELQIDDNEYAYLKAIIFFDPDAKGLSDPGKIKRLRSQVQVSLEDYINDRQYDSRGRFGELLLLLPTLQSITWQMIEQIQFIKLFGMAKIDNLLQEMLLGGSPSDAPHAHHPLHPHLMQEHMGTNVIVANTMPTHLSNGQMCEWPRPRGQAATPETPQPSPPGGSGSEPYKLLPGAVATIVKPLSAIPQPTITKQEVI
AF4-AF9 inh: inhibitors of AF4 peptide binding to AF9, primary screen, biochemical, AlphaScreen, biotin-AF4 peptide, FLAG-AF9, single point; Protein AF-9 (Homo sapiens), P42568; inhibition, % at 10 µM; AID 651704, 2012; 0.47% of 350,000 active;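 active means every replicate reaching a set inhibition limit, whatever the replicate mean, cut at about 25% in these data; inconclusive means mean inhibition reaches that limit but some replicates miss it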;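 further: 0% = plate neutral control median and 100% = total signal loss; the record names both 10 and 1 µM as test concentration; the first replicate is given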
Vif TR-FRET: inhibitors of Vif binding to APOBEC3G peptide, primary screen, biochemical, TR-FRET, GST-Vif 1-94, biotin-A3G peptide, dose response retest (AID 1117319); Virion infectivity factor (Human immunodeficiency virus type 1 group M subtype B (isolate …; TR-FRET GST-Vif / biotin-A3G peptide binding; higher % means a stronger effect; test concentration not given here; strong numbers were not always called active; inhibition, %; hits with a dose series show IC50 in µM; 0.57% of 260,000 active;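 active means above the screen mean plus three standard deviations and confirmed in dose response; inconclusive means results disagree or hit not tested in dose response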;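 further: Vif residues 1-94 fused to GST binding biotinylated APOBEC3G peptide 110-148; 0% = full assay without inhibitor and 100% = GST in place of GST-Vif; retest series ran down from 100 µM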
rRNA inh HTS: reduced GFP signal of wild-type E. coli, primary screen, bacterial rRNA inhibitor project, GFP/RFP fluorescence, OD600, single point; 1.6% of 350,000 active; GFP signal change (wild-type ribosome), % (test concentration not listed); E. coli WT GFP vs humanized-ribosome RFP mutants, 24 h; hits give low values; DMSO median 0, no signal -100; AID 720706, 2013;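 active means significant combined selectivity score with lowered wild-type GFP, culture density cut under 30%, mutant RFP and density less affected; inactive means any of these conditions unmet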; further: one replicate is shown; some compounds called inactive have numbers as strong as hits
ALR H2O2 inh: inhibitors of human ALR sulfhydryl oxidase, primary screen, biochemical, H2O2 detection, HRP-luminol luminescence, single point; FAD-linked sulfhydryl oxidase ALR (Homo sapiens), P55789; inhibition, % (concentration not given with the values); 3.8% of 290,000 active; purified ALR, DTT oxidation;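 active means mean and each replicate at 75% or more; inconclusive means only one of the two met; inactive means neither met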;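 further: stock transfer was 7.5 nL into about 7.5 µL; 0% = neutral wells and 100% = wells with inactivated enzyme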
Target sequence (P55789 whole entry, looked up): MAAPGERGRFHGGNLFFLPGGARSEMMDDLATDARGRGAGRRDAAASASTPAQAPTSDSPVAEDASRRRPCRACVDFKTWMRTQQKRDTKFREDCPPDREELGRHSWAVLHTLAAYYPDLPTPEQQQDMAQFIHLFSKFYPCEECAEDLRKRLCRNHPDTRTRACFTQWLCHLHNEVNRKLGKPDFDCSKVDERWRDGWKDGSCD
FGF22 binding: binders of human FGF22 protein, primary screen, FGF22 synaptogenesis inhibitor project, biophysical, thermal shift, single point; calls only at 9.99 µM; 1.5% of 340,000 active; Fibroblast growth factor 22 (Homo sapiens), Q9HCT0; recombinant FGF22 thermal shift, SYPRO orange fluorescence; percent of sucrose octasulfate shift, DMSO zero;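 active means melting point raised past a set limit in the mean and every replicate; inconclusive means no clear call; three in four hits are not shown here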
Target sequence (Q9HCT0 whole entry, looked up): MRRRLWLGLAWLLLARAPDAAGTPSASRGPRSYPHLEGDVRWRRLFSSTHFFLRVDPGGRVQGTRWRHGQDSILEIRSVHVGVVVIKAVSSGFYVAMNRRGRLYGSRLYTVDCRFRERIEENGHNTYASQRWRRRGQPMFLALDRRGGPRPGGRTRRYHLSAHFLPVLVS
E coli growth: E. coli growth inhibition, primary screen, OD600; OD600 absorbance (concentration not given with the values); Escherichia coli growth, 23 h; hits give low values; 0.21% of 330,000 active;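 active means OD600 absorbance below the run mean of sample wells minus 3.6 SD, in any replicate, cut at about 0.56 in these data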;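 further: stock transfer was 300 nL into about 60 µL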
rRNA inh HTS OD600: recorded beside rRNA inh HTS, whose call it bears; OD600 change, %; measured here: OD600 growth;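 optical density of the mix in the first replicate; 0 = DMSO median and -100 = no signal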
rRNA inh HTS RFP: further read-out of rRNA inh HTS, marked with its call; RFP signal change, %; measured here: RFP humanized mutant strains;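 first replicate; 0 = DMSO median and -100 = no signal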
Starred values were filed as active, the others as inactive; i = inactive; ? = inconclusive; . = not tested or not shown. Only part of the results is shown; count on the stated rates, not on these rows.

The first 5 entries, ahead of the listing:
The line under a structure holds: HNF4A DNA FP	AF4-AF9 inh	Vif TR-FRET	rRNA inh HTS	rRNA inh HTS OD600	rRNA inh HTS RFP	ALR H2O2 inh	FGF22 binding	E coli growth
CNc1nc(NCCOC23CC4CC(CC(C4)C2)C3)nc(OCC(F)(F)F)n1
    2.5	.	-3%	.	.	.	.	.	0.74
CCN(C(=O)CSc1nnc(-c2ccccc2F)n1N)c1c(N)n(Cc2ccccc2)c(=O)[nH]c1=O
    -0.3	-1.1	.	7	16	0.5	.	i	0.69
c1ccc(C2COC(c3cccs3)=N2)cc1 (centres undefined)
    3.5	.	-1%	.	.	.	5	.	0.63
O=C(CN1CCN(c2cccc(Cl)c2)CC1)Nc1ccc(S(=O)(=O)N2CCOCC2)cc1
    2.1	1.6	6%	-15	-22	-4.2	-15	i	0.67
O=C(c1cc([N+](=O)[O-])ccc1N1CCN(S(=O)(=O)c2ccc(Cl)c(Cl)c2)CC1)N1CCOCC1
    4.8	.	9%	.	.	.	-5	.	0.69

Main list (from the top)
The line under a structure holds: HNF4A DNA FP	AF4-AF9 inh	Vif TR-FRET	rRNA inh HTS	rRNA inh HTS OD600	rRNA inh HTS RFP	ALR H2O2 inh	FGF22 binding	E coli growth
CNc1nc(NCCOC23CC4CC(CC(C4)C2)C3)nc(OCC(F)(F)F)n1
    2.5	.	-3%	.	.	.	.	.	0.74
CCN(C(=O)CSc1nnc(-c2ccccc2F)n1N)c1c(N)n(Cc2ccccc2)c(=O)[nH]c1=O
    -0.3	-1.1	.	7	16	0.5	.	i	0.69
c1ccc(C2COC(c3cccs3)=N2)cc1 (centres undefined)
    3.5	.	-1%	.	.	.	5	.	0.63
O=C(CN1CCN(c2cccc(Cl)c2)CC1)Nc1ccc(S(=O)(=O)N2CCOCC2)cc1
    2.1	1.6	6%	-15	-22	-4.2	-15	i	0.67
O=C(c1cc([N+](=O)[O-])ccc1N1CCN(S(=O)(=O)c2ccc(Cl)c(Cl)c2)CC1)N1CCOCC1
    4.8	.	9%	.	.	.	-5	.	0.69
COc1ccc(NS(=O)(=O)c2cc(NC(=O)c3ccccc3F)ccc2N2CCCC2)cc1
    -1.2	5.4	.	1	-24	-7.9	-8	.	0.67
CCOCCCNC(=O)c1ccc(Br)cc1
    -0.5	.	?	.	.	.	-6	.	0.67
COc1cc(C(=O)NCc2nnc(SCC(=O)c3ccccc3)o2)cc(OC)c1OC
    -5.2	-1.9	.	-1	4	0.8	4	i	0.68
CCOC(=O)c1cc2cc3ccccc3cc2oc1=O
    -1.7	-3.4	1%	23	7	0.3	2	.	0.67
CCOC(=O)C1CCN(c2ncnc3c2oc2ccccc23)CC1
    -0.1	.	?	.	.	.	-1	.	0.68
Cc1ccc(N(C(=O)CCC(=O)Nc2cc(C)on2)C(C(=O)NC2CCCC2)c2ccccc2)cc1 (centres undefined)
    3.2	-0.2	8%	3	26	1.0	-15	i	0.71
Cc1cccc(C(=O)NC(C(=O)Nc2ccc(S(=O)(=O)Nc3nccs3)cc2)C(C)C)c1 (centres undefined)
    0.6	2.6	.	-5	-3	1.7	.	i	0.64
O=C1N[C@@H](Cc2c[nH]c3ccccc23)COC(=O)[C@H](Cc2ccc(F)cc2)C/C=C\C[C@H]1CC(=O)N(CCO)Cc1ccccc1
    3.0	4.3	.	9	-2	-10	1	i	0.78
CC(C)NC(=O)Nc1ccc2c(c1)CC(=O)N([C@@H](C)CO)C[C@@H](C)[C@H](CN(C)Cc1ccc(C(=O)O)cc1)O2
    .	-0.6	.	1	-1	-0.6	.	i	.
CC(CN1CCCCC1)OC(=O)c1ccc(Cl)cc1 (centres undefined)
    -0.2	.	4%	.	.	.	-4	.	0.68
CCC(=O)Nc1ccc2c(c1)C(=O)N(C)[C@H]1CC[C@H](CC(=O)Nc3ccc(OC)cc3)O[C@@H]1CO2
    .	-2.1	.	0	2	-1.7	.	i	.
CN1CCN(c2nc3c(c(=O)n(C)c(=O)n3C)n2CC(=O)C23CC4CC(CC(C4)C2)C3)CC1
    7.0	1.0	0%	.	.	.	-2	i	0.71
O=C(NC(NC(=S)Nc1ccc(Cl)cc1Cl)C(Cl)(Cl)Cl)c1cccc([N+](=O)[O-])c1 (centres undefined)
    2.4	.	2%	.	.	.	.	.	0.64
FC(F)(F)c1ccccc1-n1c(CN2CCCCC2)n[nH]c1=S
    2.3	-3.8	?	-3	9	2.4	.	i	0.67
CC1=CC(=NNS(=O)(=O)c2ccc([N+](=O)[O-])cc2)CC(C)(C)C1
    2.8	1.8	3%	-2	-2	1.9	.	i	0.67
CCOC(=O)N1CCN(C(=O)CSc2nc(CC)nc3c2c(=O)n(C)c(=O)n3C)CC1
    1.3	-22	0%	0	3	-3.1	.	i	0.7
C[C@H](CO)N1C[C@H](C)[C@H](CN(C)Cc2ccc(C(=O)O)cc2)Oc2ccc(NS(=O)(=O)c3cccs3)cc2C1=O
    .	-1.6	.	0	6	0.8	.	i	.
O=S(=O)(N[C@@H]1CC[C@H](CCn2cc(-c3ccccn3)nn2)O[C@H]1CO)c1cccc(Cl)c1
    .	1.8	.	-1	-3	0.5	.	i	.
COc1ccc(OC)c(CC(NC(C)=O)C(=O)NC2CCN(c3nnnn3-c3ccccc3)CC2)c1 (centres undefined)
    .	2.3	?	5	8	-1.5	-16	i	0.69
c1ccc2c(c1)[nH]c1c(N3CCOCC3)ncnc12
    1.6	4.9	2%	-14	-21	-7.6	-15	i	0.6
O=C(NCc1ccco1)c1cc2cc3ccc(Cl)cc3nc2o1
    -0.9	.	-1%	.	.	.	.	.	0.71
CCCCOc1ccc(C(=O)N(Cc2ccccc2)C2CCS(=O)(=O)C2)cc1 (centres undefined)
    6.0	-3.6	-11%	-5	7	2.1	-4	i	0.69
CN(C)S(=O)(=O)c1ccc(N2CCCC2)c(C(=O)Nc2nc(-c3ccc(F)cc3)cs2)c1
    -1.4	-10	-9%	3	-4	-0.9	6	i	0.72
Cc1ccc(C(C(=O)NC2CCCCC2)N(C(=O)Cc2c[nH]c3ccccc23)c2ccccc2)o1 (centres undefined)
    -4.8	.	-2%	.	.	.	1	.	0.73
Cc1ccc(-c2cc(C(=O)Nc3cccnc3)c3ccccc3n2)s1
    5.6	1.2	.	-30	-33	-5.4	-16	i	0.72

Following part
mol | HNF4A DNA FP | AF4-AF9 inh | Vif TR-FRET | rRNA inh HTS | rRNA inh HTS OD600 | rRNA inh HTS RFP | ALR H2O2 inh | FGF22 binding | E coli growth
Cc1ccc2c(c1)nnn2C1CCN(S(=O)(=O)c2ccc(C(=O)N(C)C)cc2)CC1 | -1.4 | . | ? | . | . | . | . | . | 0.71
COc1cccc(NC(=O)Cn2cnc3sc(C)c(S(=O)(=O)N4CCCCC4)c3c2=O)c1 | 0.5 | . | 30% | . | . | . | 1 | . | 0.71
C[C@H]1CN([C@@H](C)CO)C(=O)Cc2cc(NC(=O)Nc3ccccc3)ccc2O[C@H]1CN(C)C(=O)Nc1cccc2ccccc12 | . | -0.6 | . | -2 | -3 | 2.8 | . | i | .
O=C(C[C@H]1CC[C@@H](NC(=O)Cc2ccccn2)[C@H](CO)O1)NCCc1ccccc1 | . | 0.6 | . | 0 | -12 | -1.5 | . | i | .
CC(=C/c1ccc(C(C)C)cc1)/C=N/NC(=O)CSc1ccccn1 | -1.8 | 4.0 | . | -21 | -44 | 2.6 | 0 | i | .
COc1cc(NC(=O)CN2C(=O)COc3ccc(S(=O)(=O)N4CCOCC4)cc32)cc(OC)c1 | 1.8 | -0.6 | . | 4 | 25 | 8.1 | -8 | i | 0.67
CCc1nc2ccc(C(=O)NCCCn3ccnc3)cn2c1N(C)CCCc1ccccc1 | 2.4 | 9.0 | . | -10 | -29 | -7.1 | . | i | .
Cc1ccnc(NC(=O)CCC(=O)N(CC(=O)NC(C)(C)C)C2CCCC2)c1 | -2.8 | . | -7% | . | . | . | -5 | . | 0.73
C=C1C(=O)C23CCC4C(C)(C(=O)OC)CCCC4(C)C2CCC1(O)C3 (centres undefined) | -4.7 | -3.3 | -6% | -37 | -38 | -7.0 | . | i | .
COCC#Cc1ccc([C@H]2[C@@H](C#N)N(C(=O)Cc3ccccc3)[C@@H]2CO)cc1 | . | -0.5 | . | 2 | 19 | 3.1 | . | i | .
C[C@H](CO)N1C[C@H](C)[C@H](CN(C)S(=O)(=O)c2cccs2)Oc2c(NC(=O)C3CCCCC3)cccc2C1=O | . | -0.4 | . | -6 | -6 | 1.5 | . | i | .
Cc1ccc(S(=O)(=O)c2nc(-c3ccccc3)oc2N2CCCC2)cc1 | -1.3 | 0.4 | . | 1 | 6 | -5.2 | . | i | 0.71
COc1ccc(C=CC(=O)c2ccc3cc(OC)c(OC)cc3c2)cc1OC | 5.3 | 2.4 | . | -11 | -13 | 11 | . | i | .
CC1CCc2c(sc(NC(=O)c3ccc(N4C(=O)CCC4=O)cc3)c2C(N)=O)C1 (centres undefined) | 1.9 | 1.4 | -11% | -4 | -25 | -2.3 | 6 | i | 0.63
CCNS(=O)(=O)c1ccc2c3c(cccc13)C(=O)N2 | 2.9 | . | 24% | . | . | . | -2 | . | 0.67
CCC(=O)N(C)C[C@@H]1Oc2cc(-c3ccccc3F)ccc2S(=O)(=O)N([C@H](C)CO)C[C@H]1C | . | 2.1 | . | -5 | -17 | -2.2 | . | i | .
Cn1c(=O)c2c(ncn2CCCC(=N)N2CCOCC2)n(C)c1=O | 2.1 | -4.7 | -3% | 20 | 8 | 3.4 | 1 | i | 0.72
CCNC(=O)[C@H]1[C@H](CO)[C@H]2Cn3c(ccc(-c4ccccc4)c3=O)[C@H]2N1Cc1ccc2c(c1)OCO2 | . | 5.7 | . | -5 | -15 | 0.7 | . | i | .
Cc1nn(-c2ccccc2)c2c1cc1c(=O)n(C)c(=O)nc-1n2-c1ccccc1F | 5.3 | 1.9 | 16% | -6 | 2 | -0.6 | -8 | i | 0.71
CCCCN(Cc1ccc(C(=O)N[C@H](C(=O)O)C(C)C)cc1)C(=O)C(c1ccccc1)c1ccccc1 | 1.2 | 0.6 | . | . | . | . | . | i | 0.66
Cc1onc(C(=O)N2C(C)CCCC2C)c1[N+](=O)[O-] (centres undefined) | -0.2 | . | 3% | . | . | . | -5 | . | 0.69
CC1CN(C(=O)CCc2cc(C(C)(C)C)c(O)c(C(C)(C)C)c2)CC(C)O1 (centres undefined) | 1.7 | 0.3 | . | -11 | -8 | 0.8 | 7 | i | 0.7
CC(C)N1CCC(N2CCN(C3CCCC3)CC2CCO)CC1 (centres undefined) | -4.9 | 1.4 | -6% | 14 | 16 | -0.1 | 4 | i | .
COc1ccc(NC(=O)c2cc(C)on2)cc1OC | 3.1 | . | 0% | . | . | . | -3 | . | 0.68
O=C(COC(=O)c1cccs1)NCCC1=CCCCC1 | -2.3 | -1.8 | 13% | -6 | 2 | -1.4 | -13 | i | 0.69
